# HIV Env fusion: inhibitors of HIV-1 Env-driven cell-cell fusion, primary screen, HeLa-JRFL effector, CEM21 target cells, luciferase; inhibition, % at 12.3 µM; 360,000 compounds, 1.1% hits; AID 651610, 2012;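 active = mean replicate inhibition score of at least 50 and every replicate individually at or above 50; inconclusive = only one of the two criteria met; inactive = mean below 50 and not all replicates reaching 50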;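 note: 0% = plate neutral controls and 100% = maraviroc near 300 nM; one replicate is shown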
# MT1-MMP act inh: blockers of MT1-MMP proenzyme processing, primary screen, HT1080 RFP-PRO-GFP cells, GFP/RFP fluorescence | GFP/RFP ratio fluorescence, overnight; percent of plate control window, DMSO zero | Matrix metalloproteinase-14 (Homo sapiens), P50281 | GFP/RFP ratio change, % at 20 µM | 360,000 compounds, 0.061% hits | AID 651647, 2012;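 active = GFP/RFP ratio change of at least 30% with cell ATP level not reduced by more than half and red fluorescence within 50% of control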; note: strong numbers were not always called active
#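 Material – HT1080 RFP-PRO-GFP cells · Control set – DMSO wells and RFP-L50D-GFP cells · Incubation – overnight cell settling, then overnight compound exposure, 37 °C, 5% CO2 · Compound dosing – single-point 20 µM compound, 1% DMSO · Read-out – GFP/RFP fluorescence ratio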
# Yeast UUG start: modulators of yeast start codon fidelity, primary screen, whole organism, S. cerevisiae, single point, plate reader. activity score, % at 18.7 µM. S. cerevisiae UUG-firefly luciferase reporter, luminescence/redox ratio. 350,000 compounds, 0.13% hits;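 active = replicate mean at a twofold rise or more, about +100% in these data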;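 note: firefly luciferase made from a UUG start codon reports start codon fidelity; reporter light over untreated wells divided by growth signal over untreated wells; some hits fall short of that in this replicate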
# eIF4H FP inh: human eIF4H binding inhibitors, primary screen, translation initiation inhibitor project, biochemical, uHTS, fluorescence polarization. 290,000 compounds, 0.94% hits. inhibition, % at 35 µM. eIF4H fluorescence polarization binding assay;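 active = 50% or more with normal probe brightness, or confirmed in later tests; inconclusive = above 50% with abnormal brightness, or retests that disagree; inactive = below 50% or failed in later tests; about a fifth of its hits are not listed in these tables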;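 note: calls also rest on retests at 20 µM and on dose response follow-up; 0% = protein and probe with vehicle and 100% = probe without protein; strong numbers were not always called active; many hits fall short of the cut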
# PABP polyA inh: PABP poly(A) RNA binding inhibitors, primary screen, biochemical, fluorescence polarization, uHTS. Polyadenylate-binding protein 1 (Homo sapiens), P11940. inhibition, % at 35 µM. 290,000 compounds, 1% hits;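 active = 50% or more with normal probe brightness, or confirmed in later tests; inconclusive = above 50% with abnormal brightness, or retests that disagree; inactive = below 50% or failed in later tests; about a fifth of its hits are not listed in these tables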;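 note: calls also rest on retests at 20 µM and on dose response follow-up; controls were probe without protein and protein plus probe with vehicle; some compounds called inactive have numbers as strong as hits; many hits fall short of the cut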
# Target sequence (P11940 whole entry, looked up): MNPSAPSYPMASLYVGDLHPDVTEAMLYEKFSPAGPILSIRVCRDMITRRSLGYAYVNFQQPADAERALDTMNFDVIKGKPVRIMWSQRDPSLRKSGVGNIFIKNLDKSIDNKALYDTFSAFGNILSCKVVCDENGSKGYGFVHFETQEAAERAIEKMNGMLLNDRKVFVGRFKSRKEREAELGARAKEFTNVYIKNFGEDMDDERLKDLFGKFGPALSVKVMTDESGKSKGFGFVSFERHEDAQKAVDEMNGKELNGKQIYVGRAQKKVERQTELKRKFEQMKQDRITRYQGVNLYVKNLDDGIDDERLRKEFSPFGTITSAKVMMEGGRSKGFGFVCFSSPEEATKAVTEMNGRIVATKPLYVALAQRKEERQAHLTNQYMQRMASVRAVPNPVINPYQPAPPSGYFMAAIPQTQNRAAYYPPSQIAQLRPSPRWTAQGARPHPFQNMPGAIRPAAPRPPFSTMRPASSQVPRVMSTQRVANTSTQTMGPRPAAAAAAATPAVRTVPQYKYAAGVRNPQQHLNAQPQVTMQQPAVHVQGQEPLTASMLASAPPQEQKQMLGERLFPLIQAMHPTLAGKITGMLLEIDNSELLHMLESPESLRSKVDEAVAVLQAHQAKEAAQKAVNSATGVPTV
# Rce1 inhib: yeast Rce1p protease inhibitors, primary screen, biochemical, fluorescence, cell-free homogeneous; AID 2563, 2010; yeast membranes, quenched prenylated peptide cleavage fluorescence; 290,000 compounds, 0.27% hits; calls only;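 active = fall in fluorescence gain of 50% or more versus controls, with final raw signal at or below 3038400; inconclusive = same 50% fall but final raw signal above 3038400; inactive = fall in fluorescence gain under 50%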;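 note: plate controls were neutral control wells for no effect and wells lacking membranes for full effect; tested at 10 µM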
# CSC inhib: cancer stem cell viability inhibitors, primary screen, luminescence | 300,000 compounds, 1.1% hits | AID 2717, 2010 | cancer stem cell-like cells viability | inhibition, % at 7.5 µM;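 active = mean at 75% or more and at least half the replicates too; inconclusive = mean and replicates disagree; tested in HMLE shEcad cells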;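 note: 0% = median of negative and 100% = median of positive control wells; the first replicate is given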
# eIF4H FP inh retest: further read-out of eIF4H FP inh, marked with its call; inhibition, %; compound at 20 µM; confirmation average;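 mean of two retest wells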
# PABP polyA inh retest: further read-out of PABP polyA inh, marked with its call; inhibition, %; compound at 20 µM; confirmation repeats;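 mean of two retest wells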
# MT1-MMP act inh RFP: recorded beside MT1-MMP act inh, whose call it bears; RFP signal change, %; measured here: RFP expression control read;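 0 = vehicle wells; hits needed this value within 50% of zero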
# * marks the source's active call; other numbers are inactive results; i = inactive; u = inconclusive; x = no result given.
SMILES,HIV Env fusion,MT1-MMP act inh,MT1-MMP act inh RFP,Yeast UUG start,eIF4H FP inh,PABP polyA inh,Rce1 inhib,CSC inhib,others
O=C(O)c1ccc(C(=O)Nc2ccc(F)cc2)cc1,-3.0,-0.6,-0.1,-12.8,x,x,x,-2.5,
O=C1CCC(C(=O)N2CCc3c(Cl)cccc3C2)CN1CCCN1CCOCC1 (stereo not given),-40.5,-2.1,2.9,10.7,2.9,0.7,i,-9.9,
O=C(NCc1nc2ccccc2[nH]1)c1ccccc1F,-2.5,2.6,3.5,-6.5,-5.2,6.3,i,3.2,
O=C(CNC(=O)c1ccc(S(=O)(=O)N2CCCC2)cc1)N/N=C/c1ccc(F)cc1,-0.1,-1.4,4.0,x,-6.7,10.6,i,1.2,
CCc1nnc(NC(=O)C(CC)CC)s1,-1.3,8.4,3.2,-11.4,-8.3,-2.5,i,-8.0,
CC1(C(=O)Nc2ccc3c(c2)OCO3)CCN1C(=O)c1ccccc1 (stereo not given),0.4,1.1,5.5,-1.9,x,x,x,x,
O=C(Nc1ccc(O)cc1)/C(=C\C=C\c1ccccc1)NC(=O)c1ccccc1,1.9,7.4,-2.9,-3.2,-14.4,-11.8,i,-11.4,
CCN1CCN(CCCNC(=O)C(=O)c2c(C)[nH]c3ccccc23)CC1,8.7,1.6,4.5,-11.2,2.5,2.6,i,-8.4,
COc1cccc(NC(=O)COC(=O)c2ccc3c(c2)OCO3)c1,-0.4,8.7,1.2,-7.9,x,x,x,x,
Cc1cc(C(=O)N/N=C/c2ccc(OCc3ccccc3)cc2)c(C)o1,-11.4,-4.1,-3.4,x,-1.6,0.8,i,66.0,
O=C1/C(=C\c2ccccc2)CCc2c1[nH]c1ccccc21,-428.7,-16.4,-15.2,-5.1,4.2,-8.4,i,3.5,
CCN(CC)C(=O)[C@H]1C[C@H](CC(=O)NCCN2CCOCC2)C(=O)N2CCc3c([nH]c4ccc(Cl)cc34)[C@]12C,-33.3,-0.7,-3.7,11.5,x,x,x,x,
Cc1nn(CC(=O)Nc2ccc(C(C)C)cc2)c(C)c1[N+](=O)[O-],-16.2,4.4,-0.3,-6.7,-5.9,13.0,i,-11.1,
CC(C)Oc1ccc(C(=O)NC2=NCCS2)cc1,-25.7,5.1,-1.6,x,-3.3,8.5,i,x,
CCOc1cc(N2CCOCC2)c(OCC)cc1NC(=O)COC(=O)c1ccc(Cl)cc1N,x,2.1,-2.6,-32.3,x,x,x,-4.7,
Fc1ccc(-n2c(-c3ccc4ccccc4n3)n[nH]c2=S)cc1Cl,7.0,3.3,3.8,-8.7,-11.8,-10.9,i,-12.8,
Cc1ccc(C(=O)NC(=S)Nc2cccc3c(C)cc(C)nc23)cc1,-46.1,8.1,5.2,-10.3,5.9,0.4,i,17.7,
Cc1nn(C)c(C(=O)Nc2ccc3c(c2)OCO3)c1[N+](=O)[O-],-17.6,1.1,5.9,-25.3,-3.7,9.2,i,x,
c1cc(-c2cnc3cccnn23)c2cccnc2c1,u,-19.5,-7.3,-12.0,x,x,x,x,
COc1ccc(C(=O)NN(C)c2nc(-c3ccccc3)nnc2C(F)(F)F)cc1,x,-0.3,-5.4,-13.9,-3.9,-1.3,i,-1.2,
COc1ccccc1N(CC(=O)NCCSCc1cccc(Cl)c1)S(C)(=O)=O,29.3,5.2,-2.6,-14.1,-2.4,0.9,i,-7.8,
COc1ccc(CCNC(=O)CNS(=O)(=O)c2ccc(Cl)cc2)cc1,11.9,0.9,-1.4,2.0,x,x,i,2.3,
CCn1nnc(NC(=O)COc2cc(C)ccc2C(C)C)n1,20.8,1.4,1.9,2.2,-7.6,-2.0,i,-14.4,
CN(c1ccccc1C(=O)N1CCN(Cc2ccc3c(c2)OCO3)CC1)S(C)(=O)=O,-22.7,1.8,7.2,x,-3.0,-8.0,i,-8.2,
C/C(=N/OC(=O)c1c(-c2c(F)cccc2Cl)noc1C)c1cnccn1,-3.3,-1.2,4.9,x,-3.8,-5.7,i,-0.5,
C=CCSc1ncc(CO)n1Cc1ccccc1,12.9,-0.8,2.3,x,-6.2,-14.2,i,7.1,
Cc1ccc(NC(=O)CN2CCN(C)CC2)cc1S(=O)(=O)N1CCOCC1,-10.8,-1.1,2.2,1.1,x,x,i,4.8,
O=C(c1ccccc1Nc1ccc(SC(F)F)cc1)N1CCCCC1,-27.5,-5.5,2.0,3.8,-4.1,-6.8,i,8.6,
COc1cccc(-n2nnc3c(=O)n(C/C=C/c4ccccc4)cnc32)c1,-4.4,0.5,0.0,-10.7,-6.6,2.5,i,-10.6,
O=C(CSc1nnc(COc2ccc(Cl)cc2)n1Cc1ccco1)c1ccccc1F,-53.0,0.0,-3.6,-15.0,-16.0,-0.7,i,-2.0,
Cc1noc(C)c1C(=O)OCC(=O)Nc1c(F)cccc1F,-2.6,-0.6,-6.7,x,-3.9,5.8,i,-8.2,
CCCCSc1nc2c(c(=O)[nH]c(=O)n2C)n1CCc1ccccc1,-37.3,9.5,-8.8,-13.9,-5.7,-9.2,i,11.2,
C=C(C)Cn1c2ccc(NC(=O)NCc3ccccc3)cc2c(=O)n1C,-7.6,-0.4,-0.1,-3.9,x,x,x,x,
Cc1ccc2c(c1)[C@H]1[C@H](CO2)[C@H](c2ccccc2)[C@]2(C)C(=O)Nc3cc(F)ccc3C(=O)N12,17.7,-23.1,-20.2,-3.7,x,x,x,x,
CCc1[nH]nc2c1C(c1ccsc1)C(C#N)=C(N)O2 (stereo not given),x,-3.1,-0.4,-31.0,-6.4,-6.7,i,-9.0,
CS(=O)(=O)c1ccccc1-c1nnc(NC(=O)Cc2ccccc2)o1,5.2,-4.5,-1.1,-28.1,2.7,-3.0,i,-4.1,
COCC1CCCCN1C(=O)c1ccc(OC2CCN(CCc3ccccc3)CC2)cc1 (stereo not given),5.5,-0.6,-0.3,-4.5,4.3,-9.9,i,8.1,
CN(c1ccccc1)S(=O)(=O)c1cccc(NC(=O)Cn2cnc3ccccc3c2=O)c1,x,-2.8,-13.7,0.9,-11.8,-0.9,i,-3.0,
Cc1ccccc1N1CC(O)(c2ccccc2)[N+]2=C1SCC2 (stereo not given),-1.5,-0.8,0.1,-0.6,-8.7,-3.0,i,2.4,
COc1ccc(NC(=O)CCNC(=O)c2ccccc2)cc1S(N)(=O)=O,4.3,-2.1,2.8,-17.5,-3.3,-13.9,i,-0.4,
O=C(COC(=O)c1ccccn1)NC1CCCCC1,-41.5,-5.3,-10.6,-15.3,1.8,-4.9,i,-9.6,
CC1CN(C(=O)C(C)Sc2nnnn2C)CC(C)O1 (stereo not given),-55.1,3.6,-3.1,-20.0,-3.1,-6.8,i,-7.2,
O=C(OCC(=O)N1CCN(C(=O)c2ccco2)CC1)c1cc(F)c(F)cc1Cl,-3.3,-1.0,-0.8,-6.7,x,x,x,7.7,
Cc1ccc(C)c2[nH]c(=O)c(CN(Cc3ccco3)C(=S)NCC3CCCO3)cc12 (stereo not given),28.5,-5.0,-5.7,x,-10.6,7.1,i,x,
Cc1ccc2c(C)c(C(=O)Nc3cccnc3)oc2c1,-174.5,-3.2,-2.5,-25.8,10.9,0.2,i,-1.5,
COc1ccc(C(=O)NCC(=O)NCC2COc3ccccc3O2)cc1 (stereo not given),-100.8,-1.4,-5.1,1.1,-2.7,12.1,i,5.4,
OC(CN=c1sc2ccccc2n1CC(O)COc1ccccc1)COc1ccccc1 (stereo not given),-149.3,0.1,-12.7,11.2,-1.3,1.5,i,x,
CC(=O)c1ccc(Nc2nc(-c3ccccc3)nc3ccccc23)cc1,0.7,-1.3,-1.4,-12.0,x,x,x,x,
CCOC(=O)NNC(=O)C1CCC(C)CC1 (stereo not given),-7.6,-2.4,2.3,-11.4,5.9,5.8,i,-6.9,
CCN(CC(=O)Nc1ccccc1OC)C(=O)c1ccc(NS(=O)(=O)c2ccc(C(C)=O)cc2)cc1,46.3,0.3,0.2,7.8,-6.1,0.6,i,9.6,
CCN(c1ccc(NC(=O)COC(=O)c2cc3ccccc3oc2=O)cc1)C(C)C,21.8,4.4,5.0,-4.0,90.2,-4.2,i,-9.3,eIF4H FP inh retest=38.8;PABP polyA inh retest=38.4
O=C(/C=C\Nc1ccc2c(c1)OCO2)c1cccs1,-191.9,-8.7,-2.2,1.8,0.7,1.1,i,3.8,
O=C(CCc1ccccc1)NCC1(c2ccccc2)CCCC1,-11.4,-6.6,-0.3,3.9,-3.2,15.8,i,-0.1,
CCOC(=O)[C@H]1[C@H]2COc3ccccc3[C@@H]2N2C(=O)c3c(C)cc(C)cc3NC(=O)[C@@]12C,89.2*,-1.2,-2.1,-4.0,x,x,x,19.2,
COc1cccc(C(=O)NCC2CCCN(C3CCCCC3)C2)c1OC (stereo not given),-13.8,-1.7,0.1,-5.2,6.7,14.1,i,x,
Cc1ncoc1C(=O)N1CCCC(C(=O)c2ccc3c4c(cccc24)CC3)C1 (stereo not given),40.4,2.1,-2.4,-34.8,2.7,-2.0,i,3.0,
CCC(CC)C(=O)Nc1cccc(/C(C)=N/NC(=O)c2c(Br)cnn2C)c1,x,5.6,-1.4,5.9,0.2,-5.5,i,-10.9,
O=C(CC1C(=O)NCCN1Cc1cccc(F)c1)NC1CCCCC1 (stereo not given),90.9*,-3.6,3.3,16.7,13.9,6.0,i,-4.3,
COc1ccccc1Cn1c(=S)[nH]c2ccc(F)cc2c1=O,4.6,-0.9,0.0,-15.8,2.0,11.0,i,x,
CCn1c(SCC(=O)Nc2ccc3c(c2)OCO3)nnc1C1CC1,9.8,0.8,-0.8,-8.4,-0.1,10.0,x,-7.8,
# (cont.)
SMILES,HIV Env fusion,MT1-MMP act inh,MT1-MMP act inh RFP,Yeast UUG start,eIF4H FP inh,PABP polyA inh,Rce1 inhib,CSC inhib,others
Cc1nc2ccccc2nc1OCC(=O)NCc1ccc2c(c1)OCO2,x,-4.4,-0.3,-13.7,2.4,-12.3,i,0.7,
COc1cccc(NC(=O)CSc2nnc(COc3ccc4c(c3)CCCC4)o2)c1,x,4.2,-7.9,2.9,5.0,0.5,i,1.7,
CCc1ccc(CC)c(S(=O)(=O)Nc2ccc(C(=O)O)c(O)c2)c1,x,6.9,5.2,-8.3,5.9,22.4,i,12.2,
CC(C)c1ccc(C(=O)N2CCCN(C(=O)c3ccc(C(C)C)cc3)CC2)cc1,24.2,-0.4,-3.7,x,-6.6,-0.2,i,-7.6,
N=c1oc2ccc3ccccc3c2cc1C(N)=S,5.8,-2.5,-3.9,x,u,u,i,2.1,
COc1ccc(C(C(=O)NC2CCCCC2)N(C(=O)c2ccco2)c2ccccc2OC)cc1 (stereo not given),7.5,-3.6,-1.2,6.8,-9.4,-1.4,i,-4.0,

# Assay outcomes deposited in PubChem by several laboratories.
